Screening data from PubChem BioAssay.
Anthrax LT inh: qHTS Assay for Anthrax Lethal Toxin Internalization | Cells, anthrax lethal toxin internalization, FRET ratio (460/530) | Potency, µM (titrated, usually from 40 µM), inactives show at the highest dose activity change, negative = inhibition, usual class: inhibitors | 0.67% of 70,000 active | AID 912, 2007; active = well fitted falling ratio curve with the 530 nm signal flat; inconclusive = other ratio curves, or a change in one channel alone; inactive = flat curves in the ratio and both channels; the % refers to the ratio; note: % is set by controls: 0 for no effect and ±100 for the full control effect; nearly all actives have a fitted effect of over 50% in size; tested in ME-180 cells; beta-lactamase reporter
Prx2 Sm inh: Schistosoma Mansoni Peroxiredoxins (Prx2). S. mansoni Prx2 activity coupled to TGR/GSH (TGR is thioredoxin glutathione reductase), NADPH fluorescence loss, qHTS; some inactives read as strong as hits. Potency, µM. 0.07% of 65,000 active; active means full or partial inhibition curve with a strong effect at the top dose; inconclusive means weaker partial or single-point curve; inactive means no accepted curve; note: series up to 57 µM; many of its hits are not listed in these tables
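Prx2 inhibition was measured as reduced NADPH consumption when electrons flowed from NADPH through TGR and glutathione to Prx2 and H2O2. Plates were read kinetically over 8 min; enzyme reagents were held at 4 deg C during dispensing.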
* = called active by the depositor; ? = inconclusive; / = not tested or not shown; [ ] = another dose, or the depositor's remark. Potency is the fitted concentration of half-maximal effect. A portion of the library; rates above refer to the full screens.

mol | Anthrax LT inh | Prx2 Sm inh
Cc1sc(NC(=O)CSc2nnc(COc3ccc(Cl)cc3)n2C)c(C#N)c1C | -3.5% | >57
Cc1ccc(-n2ncc3c(=O)n(CC#N)cnc32)cc1C | -2.0% | >57
COC(=O)c1ccccc1NC(=O)Cn1c(=O)oc2ccc(Cl)cc21 | -11.5% | >57
COc1ccc(NC(=O)c2ccco2)cc1NC(=O)c1cc2ccccc2o1 | ? | >57
CCOc1ccccc1C1NC(=O)NC(C)=C1C(=O)OC1CCCC1C (centres undefined) | -8.1% | >57
COc1ccccc1NC(=O)Oc1ccc(NC(=O)c2ccco2)cc1 | -1.2% | >57
c1ccc(-n2nc3c(ccc4cnnc43)[nH]2)cc1 | 7.0% | >57
Cc1cc(C)nc(Nc2nc(C)c3cc4c(cc3n2)OCO4)n1 | -0.1% | >57
CCN(CCCNC(=O)Cn1cc2c(n1)CCCC2)c1cccc(C)c1 | 5.6% | >57
O=C(O)C1=C(C(=O)N2CCN(C(=O)c3ccco3)CC2)CCCC1 | -9.7% | >57
CCOC(=O)c1cnc2nc(C)[nH]n2c1=O | 0.4% | >57
CCOC(=O)c1ccc(NC(=O)N2CCc3ccccc32)cc1 | -11.0% | >57
CCn1nnnc1SCC(=O)NCc1cccs1 | -0.1% | >57
COc1ccc(N(CC(=O)N2CCN(Cc3ccc4c(c3)OCO4)CC2)S(C)(=O)=O)cc1OC | -0.2% | >57
O=C1NCC2=C1C(c1ccccc1)Nc1ccccc1N2 (centres undefined) | -8.0% | /
COCCn1nnnc1C(c1ccc(OC)cc1)N1CCC(C)CC1 (centres undefined) | ? | >57
O=C(NCc1cccc(Cl)c1)c1cccnc1 | 6.0% | >57
O=S(=O)(Nc1ccc(-c2cn3ccsc3n2)cc1)c1ccc2c(c1)OCCO2 | 7.1% | >57
CCC(=O)Nc1cccc(NC(=O)CN2CCN(c3ccccc3OC)CC2)c1 | -6.0% | >57
COc1ccc(CCN2C(=O)c3[nH]nc(-c4ccccc4O)c3C2c2ccccc2)cc1OC (centres undefined) | / | >57
NC(=O)NC(CC(=O)OCC(=O)NC(=O)NCc1ccco1)c1ccc(Cl)cc1 (centres undefined) | -5.0% | >57
Cc1cc(C(=O)CN2C(=O)NC(C)(c3cccc(Br)c3)C2=O)c(C)n1Cc1ccco1 (centres undefined) | ? | >57
CCOc1[nH]c(/N=C/c2ccco2)c(C#N)c1C#N | -14.6% | >57
COc1ccc2cc(CN(C(=O)Nc3ccccc3)C3CCCC3)c(=O)[nH]c2c1 | -12.2% | >57
S=C(Nc1ccccn1)c1ccccn1 | -14.0% | >57
CC(C)(C)NC(=O)COC(=O)c1ccc(O)cc1 | -20.9% | >57
CC1CN(C(=O)CN2C(=O)NC(C)(c3ccccc3)C2=O)CC(C)O1 (centres undefined) | ? | >57
CCC(=O)N1CCN(c2ccccc2NC(=O)COc2cccc(C)c2)CC1 | ? | >57
Oc1c(C(c2ccco2)N2CCC3(CC2)OCCO3)sc2ncnn12 (centres undefined) | -10.6% | >57
COc1ncc2nc(CCc3ccccc3)c(=O)n(C)c2n1 | -12.2% | >57
CSCC[C@@H](N)P(C)(=O)O | -11.2%[8 µM] | >57
CCOCc1nnc(NC(=O)CCc2ccccc2)s1 | -16.7% | >57
CCOc1ccccc1Nc1nnc(SCC(=O)N2CCCC2)s1 | 13.1% | >57
Cc1nc(C)c(C(=O)C2=C(O)C(=O)N(CCCn3ccnc3)C2c2ccc(Cl)cc2)s1 (centres undefined) | -4.8% | >57
CCCc1cc(=O)[nH]c(SCC(=O)N(CC)Cc2ccccc2)n1 | 9.8% | >57
CN(C)Cc1ccccc1-c1nc(NC2CCNCC2)c2ccccc2n1 | 4.3% | >57
CC(C)NC(=O)[C@H]1C[C@@H]1[C@H](NC(=O)OCc1ccccc1)c1ccccc1 | 10.7% | /
CCOC(=O)c1sc2nc(-c3ccco3)c3c(c2c1N)CC(C)(C)OC3 | -23.9% | >57
CN(C)C1NC(=O)c2cc(-c3ccccc3)sc2N1 (centres undefined) | 5.7% | >57
Cn1c(=O)c(-c2cccs2)nc2cnc(N3CCOCC3)nc21 | ? | >57
COc1ccc(O)c(C(=O)CC(=O)c2ccc(F)cc2)c1 | ? | >57
Cc1cc(C)n(CC(O)COCc2ccccc2)n1 (centres undefined) | -2.0% | >57
c1ccc(N2CCN(c3ncnc4sc5c(c34)CCC5)CC2)cc1 | 10.1% | >57
Cc1csc(SCCn2c(N3CCN(c4ccccc4)CC3)nc3c2c(=O)[nH]c(=O)n3C)n1 | -10.9% | >57
Cc1nc(N2CCCC2)c2nnn(Cc3ccccc3Cl)c2n1 | 4.3% | >57
CCOc1cc(C(=O)NCCOC)cc(OCC)c1OCC | 14.3% | /
CCOC(=O)c1ccc(NC(=O)C(CC)(CC)C(=O)OCC)cc1 | -6.4% | >57
O=C(c1ccc(Cl)s1)N1CCOCC1 | / | >57
C[C@@H]1C=C[C@](Cc2ccccc2)(C(=O)NCC2CC2)N1C(=O)c1ccccc1 | -13.9% | /
CC(C)=CCC/C(C)=C/CO/N=C1/C[C@@H](O)[C@@H](O)[C@@H]2[C@@H]3C(=O)N([C@@H](C)c4ccccc4)C(=O)[C@H]3CC[C@@H]12 | -5.2%[8 µM] | /
CCOC(=O)C1=C(C)Nc2ncnn2C1/C=C/c1ccccc1 (centres undefined) | 5.3% | >57
O=S(=O)(NCC(c1cccnc1)N1CCN(c2ccccc2)CC1)c1cc(F)ccc1F (centres undefined) | ? | >57
CCC(=O)N1c2ccccc2NC2=C(C(=O)CC(c3ccco3)C2)C1c1ccco1 (centres undefined) | -19.4% | /
CCOC(=O)c1ccc(NC(=O)CC2SC(=NC)N(C)C2=O)cc1 (centres undefined) | -13.2% | >57
CCOC(=O)C1CCN(c2c(NCc3ccc(C(=O)NCCOC)cc3)c(=O)c2=O)CC1 | -11.3% | >57
CC1CCCN(C(=O)CN2CCN(C(=O)c3ccco3)CC2)C1 (centres undefined) | 11.9% | >57
CC(=O)Nc1cc(OC(C)=O)c2nonc2c1OC(C)=O | ? | /
Cn1c(O)c(C=NCCN2CCN(C(=O)c3ccccc3)CC2)c(=O)n(C)c1=O | 8.7% | >57
CCOc1nc(-c2ccc(C)cc2)ccc1-c1noc(-c2cccnc2)n1 | 6.8% | /
CC(=O)Nc1cccc(NC(=O)c2sc3ncn(CC(=O)N4CCCCC4)c(=O)c3c2C)c1 | 1.5% | >57

Following part.
Molecule,Anthrax LT inh,Prx2 Sm inh
Cc1cc(C(=O)CSc2nnc(-c3ccccc3)n2Cc2ccc3c(c2)OCO3)c(C)n1C,-24.3%,>57
N#CC1=C(N)N(c2ccccc2Sc2ccccc2)C(=O)C1,-2.0%,>57
COc1ccc(-n2nc(C(=O)NCC(=O)N3CCN(c4ccccn4)CC3)c3ccccc3c2=O)cc1,-13.2%,>57
CC1CCN(CCC(=O)N2CCCc3c2c(=O)oc2ccc(O)cc32)CC1,?,>57
COC(=O)c1c(N)c(C#N)c(C)n1-c1ccccc1,12.4%,>57
O=C1NC(c2ccc3c(c2)OCO3)Oc2ccccc21 (centres undefined),-3.0%,>57
c1ccc(-c2ccc(-n3ccnc3)cc2)cc1,-4.1%,>57
O=C(NCCCn1ccnc1)c1csc2ccccc12,8.2%,>57
COC(=O)C1=C(C)N(c2cc(Cl)cc(Cl)c2)C(=O)C1,-32.8%,/
O=C(Nc1ccc2oc(-c3cccnc3)nc2c1)c1cc2ccccc2o1,-7.0%,/
CCC(C)(C)n1nnnc1C(c1cc2cc(C)cc(C)c2[nH]c1=O)N1CCCC1 (centres undefined),?,>57
COc1cc2c(c(OC)c1)C(c1cccc(OC)c1OC)CC(=O)N2 (centres undefined),?,>57
Cc1ccc(S(=O)(=O)Cc2cn3cccnc3n2)cc1,-18.9%,>57
Cc1c(C(=O)OC2CCCCC2)[nH]c2c1C(=O)CC(C)(C)C2,?,>57
CSc1nc2ccc(S(=O)(=O)NC3CCCCC3)cc2s1,6.3%,/
CC(=O)OC(C(=O)n1nc(C)cc1C)c1ccccc1 (centres undefined),/,>57
c1ccc(-c2cnnc(N3CCCCC3)n2)cc1,?,>57
CC(=O)CCc1ccc(OC(=O)c2cccnc2)cc1,-8.3%,>57
COc1ccc(NC(=O)N2CC3(CCN(C(=O)c4cccn4C)CC3)C2)cc1,-0.6%,>57
CCOC(=O)c1[nH]c(C)c(CN(CCc2ccccc2)S(C)(=O)=O)c1C,-19.6%,>57
Cc1cc(C(=O)N2CCN(C(=O)C3CCCO3)CC2)no1 (centres undefined),/,>57
COc1ccc(Cl)c(Cn2c(NCc3ccco3)nc3c2c(=O)n(C)c(=O)n3C)c1,-4.1%,>57
COc1ccc2c(c1)CC(C1(O)C(=O)Nc3ccccc31)C2=O (centres undefined),3.9%,>57
CCOC(=O)c1cc2sc(C)cc2n1CC(=O)N1CCc2ccccc21,3.3%,>57
CC(C)COc1ccc(/C(O)=C2/C(=O)C(=O)N(CCN(C)C)C2c2ccncc2)cc1 (centres undefined),-0.5%,>57
CC(CCc1ccccc1)NC(=O)c1nnc(Cc2ccc(F)cc2)o1 (centres undefined),-6.5%,>57
Cc1ccc(C(=O)NCc2ccc3c(c2)OCO3)cc1S(=O)(=O)N1CCOCC1,-5.5%,>57
Cc1ccccc1CS(=O)(=O)Cc1ccc(C(=O)NCc2cccnc2)o1,16.7%,>57
COC(=O)c1[nH]c2c(c1C)C(=O)CC(c1cc(OC)ccc1OC)C2 (centres undefined),?,>57
COc1ccc(-c2cc(C(F)(F)F)nc(SCC(=O)NCc3ccco3)n2)cc1OC,-6.0%,>57

Next part; it opens with the six that closed the last part.
Molecule,Anthrax LT inh,Prx2 Sm inh
CC(C)COc1ccc(/C(O)=C2/C(=O)C(=O)N(CCN(C)C)C2c2ccncc2)cc1 (centres undefined),-0.5%,>57
CC(CCc1ccccc1)NC(=O)c1nnc(Cc2ccc(F)cc2)o1 (centres undefined),-6.5%,>57
Cc1ccc(C(=O)NCc2ccc3c(c2)OCO3)cc1S(=O)(=O)N1CCOCC1,-5.5%,>57
Cc1ccccc1CS(=O)(=O)Cc1ccc(C(=O)NCc2cccnc2)o1,16.7%,>57
COC(=O)c1[nH]c2c(c1C)C(=O)CC(c1cc(OC)ccc1OC)C2 (centres undefined),?,>57
COc1ccc(-c2cc(C(F)(F)F)nc(SCC(=O)NCc3ccco3)n2)cc1OC,-6.0%,>57
Clc1ccc(OCCCc2nc(-c3cccnc3)no2)c(Cl)c1,-21.3%,/
C=CCSc1nsc(N)n1,-12.5%,>57
CNc1nc(-c2ccc(Cl)cc2)cs1,-6.6%,>57
CC1(C)Cc2c(c(N3CCOCC3)nc3sc(C(=O)N4CCCCC4)c(N)c23)CO1,-10.3%,>57
O=C(c1ccc(S(=O)(=O)N2CCOCC2)cc1)N1CCc2ccccc2C1,1.4%,>57
O=C(O)CCCC(=O)NCc1ccccn1,8.8%,>57
Clc1ccc2nc(N3CCCCC3)sc2c1,?,>57
COC(=O)c1ccc(C(NC(=O)OCc2ccccc2)/C(F)=C/[C@@H](C)C(=O)NCCc2c[nH]c3ccc(OC)cc23)cc1 (some centres undefined),16.1%,/
N#Cc1ccccc1NC(=O)CSc1nnc(-c2ccccc2)n1-c1ccccc1,-2.6%,>57
COc1ccc(CNc2ccnc(-c3ccccc3OC)n2)c(OC)c1,?,>57
Cc1ccccc1OCC(=O)OC(C)CN1CCN(C)CC1 (centres undefined),/,>57
CC[C@H]1C2=C3C(CC[C@H]4C(OCc5ccc(F)cc5C(F)(F)F)OC[C@](C)([C@@H]34)N(C(=O)OC(C)(C)C)C2)C(COC)C1COC (some centres undefined),-11.4%,>57
COC(=O)c1ccc(S(=O)(=O)N2C3CCC2CC(NC(=O)NC2CCCCC2)C3)cc1 (centres undefined),-17.7%,>57
c1ccc(Cn2nnnc2C(c2cccs2)N2CCc3ccccc3C2)cc1 (centres undefined),?,>57
CC1(C)CC(=O)C(C=NCc2cccnc2)=C(O)C1,-6.4%,/
Cn1c(SCC(=O)NCc2ccc3c(c2)OCO3)nc2scc(-c3cccs3)c2c1=O,-8.7%,>57
CCOC(=O)C1CCN(S(=O)(=O)Cc2ccccc2)CC1,1.2%,/
CCOC(=O)C(CCCOc1cccc(OC)c1)C(=O)OCC,-21.9%,/
COC(=O)c1cccc(S(=O)(=O)N2CCC(C)CC2)c1,-1.3%,>57
Cn1c(SCC(=O)NCC2CCCO2)nnc1-c1ccc(S(=O)(=O)N2CCCC2)cc1 (centres undefined),-11.5%,>57
Cc1noc(C)c1-c1nccc(NCc2cccnc2)n1,-1.4%,>57
COc1ccc2[nH]c(O)c(NC(C)=O)c2c1,12.3%,>57
CCn1cc(Br)c(C(=O)Nc2cccc(Cl)c2)n1,-2.7%,>57
CCOC(=O)N1CCN(C(=O)Cn2c(=O)sc3ccccc32)CC1,-7.7%,>57
CCC1(CC)C(=O)NC(=O)NC1=NCCc1ccc(O)cc1,2.8%,>57
COCCOC(=O)c1c(C)oc2ccc(NS(=O)(=O)c3ccc(C(=O)O)cc3)cc12,8.8%,>57
COc1cc(NC(=O)C2CCCCN2)ccc1OCC(C)C (centres undefined),-17.5%,>57
